Sa ugtP lethal: growth inhibition of S. aureus ugtP deletion strain | 330,000 compounds, 0.54% hits | growth inhibition, % (no concentration beside the values) | S. aureus RN4220 ugtP deletion, OD600 growth, 16 h; some inactives read as strong as hits;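 active = z-score under -3 and OD600 up to 0.15 on both plates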;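 note: plate controls were untreated wells for no effect and antibiotic for full effect; wells of about 80 µL received 100 nL stock; the first replicate is given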
PrP 5UTR inh: inhibition of PrP 5' UTR reporter expression. 340,000 compounds, 0.35% hits. cell-based PrP 5' UTR mRNA reporter, plate reader. inhibition, % (test concentration not listed);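 active = every replicate at 50% or more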;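 note: 0 = median of the neutral control wells; tested in H4 reporter cells; numbers are from one replicate; inactives centre near -14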
Mtb hypoxia inh: inhibitors of hypoxia-regulated fluorescent reporter in Mycobacterium tuberculosis; AID 1159583; 300,000 compounds, 0.1% hits; fluorescence inhibition, % (test concentration not listed); M. tuberculosis hypoxia-regulated fluorescent reporter, fluorescence;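 active = 35 to 45% if threefold the growth effect, above 45% if 1.5-fold the growth effect; inactive = the rest, general growth blockers included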;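 note: wells of about 50 µL received 100 nL stock; 0% = vehicle wells and 100% = reference inhibitor wells; whole bacteria with a GFP reporter of the hypoxia response; strong numbers were not always called active; many hits fall short of the cut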
Autofluor counter: counter-screen for toxin protease inhibitors: compound fluorescence. compound autofluorescence counterscreen, microsphere flow cytometry; active compounds read high. fluorescence intensity (no concentration beside the values). 360,000 compounds, 3.1% hits. AID 624483;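 active = at least 3 SD above the mean of all compounds, about 16000 in these data; inconclusive = too few beads counted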;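 note: 100 nL of 1 mM stock went into each well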
BJeLR lethal: kills HRASV12-expressing BJeLR cells; BJeLR (HRASV12) viability, CellTiter-Glo ATP luminescence, 48 h; reference of the scale not given here; inhibition, % (test concentration not listed); 300,000 compounds, 0.17% hits; AID 1554;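 active = replicate mean above 50%; inconclusive = above 50% but judged a plate artefact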;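 note: 50 nL library stock added to about 25 µL; numbers are from one replicate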
RN4220 kill: S. aureus RN4220 growth inhibition; OD600, 16 h; 330,000 compounds, 0.33% hits; inhibition, % (no concentration beside the values);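 active = z-score of -3 or lower and OD600 up to 0.18 on both plates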;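 note: plate controls were untreated cells for no effect and reference antibiotic for full effect; stock transfer was 100 nL into about 80 µL; one replicate is shown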
Mtb hypoxia inh growth: second read-out of Mtb hypoxia inh, no call of its own (marks repeat the call); growth inhibition, %; measured here: M. tuberculosis growth (absorbance);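 0% = vehicle and 100% = reference antibiotic; read after six days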
* marks the source's active call; other numbers are inactive results; ? = inconclusive; . = not tested or not shown.

Every second line gives: Mtb hypoxia inh	PrP 5UTR inh	Autofluor counter	Mtb hypoxia inh growth	Sa ugtP lethal	RN4220 kill	BJeLR lethal
O=C(/C=C/c1cccc(F)c1)Nc1ccc(S(=O)(=O)N2CCOCC2)cc1
    -7	-8	3912	6	-2	0.9	.
COc1cccc(C2=NOC(C(=O)Nc3cc(OC)c(OC)c(OC)c3)C2)c1 (centres undefined)
    10	-9	21270*	8	3	3.7	2
CCC1(CC)Nc2ccccc2C(=O)N1c1ccc(OC)cc1
    1	-83	4697	12	5	3.5	-6
Oc1ccccc1Cl
    .	-17	4343	.	6	1.4	.
COc1ccc(NC(=O)c2c(F)cccc2Cl)cc1S(=O)(=O)N1CCOCC1
    15	-11	3437	11	-5	8.9	.
COc1cccc2[nH]c3c(N4CCC(C)CC4)ncnc3c12
    1	-18	23249*	4	-7	4.3	-3
COC(=O)C1=C(c2cc3ccccc3s2)CC2CCC1N2C(=O)N1CCOCC1 (centres undefined)
    0	.	.	7	-4	9.0	.
COc1ccc(C(O)P(=O)(Oc2ccccc2)Oc2ccccc2)cc1 (centres undefined)
    1	4	3061	-1	2	1.0	-9
COc1ccc(-n2c(SCC(C)=O)nc3sc(C)c(C)c3c2=O)cc1
    1	-10	3745	3	2	1.8	-3
O=c1cc(-c2ccccc2)nc(Sc2ccc([N+](=O)[O-])cc2[N+](=O)[O-])[nH]1
    6	-11	3306	5	2	-0.6	-1
CCCS(=O)(=O)c1nc(S(=O)(=O)c2ccc(C)cc2)c(NCc2ccccn2)s1
    -14	-2	4193	-3	0	-4.0	-18
Cc1[nH]nc(SCC(=O)N2CCCCCC2)c1[N+](=O)[O-]
    0	-21	4326	-8	4	0.3	-16
CC1CCCN(C(=O)CN2C(=O)CSc3ccc(S(=O)(=O)N4CCOCC4)cc32)C1 (centres undefined)
    11	-18	4489	0	0	0.9	-5
Cc1nc(SCc2ccccc2F)c2oc3ccccc3c2n1
    40*	-15	4049	15*	9	8.0	5
CN(Cc1c(F)cccc1Cl)c1nnnn1-c1ccccc1
    10	-21	8897	15	-1	6.8	-8
COc1ccc(C(=O)NCC(=O)NN=Cc2cn[nH]c2-c2ccccc2)cc1
    -11	.	.	-3	1	-1.7	.
Cn1c(C(=O)NCCN2CCc3ccccc3C2)cc2c(=O)[nH]c3ccccc3c21
    3	-9	4460	13	3	5.0	-6
CCn1c(=O)cc(C(=O)OC)sc1=Nc1ccc(F)c(F)c1
    11	3	5620	20	2	-9.1	-8
COc1ccccc1Nc1nc(N)nc(CSC(=S)N2CCCCC2C)n1 (centres undefined)
    12	-11	2757	0	1	8.0	-3
CCN(CC)CCNC(=O)Cn1c(=O)c2cccn2c2ccc(F)cc21
    2	6	3658	7	3	1.1	6
CCC1=C(c2ccc(C)cc2)S(=O)(=O)N=C1N1CCC(C(=O)NCCCN2CCCCC2)CC1
    6	-12	6515	4	7	4.6	-1
Cc1c(C(=O)Nc2ccccn2)oc2c(Cl)cccc12
    7	-40	5211	0	2	9.4	-4
CC(=O)CNc1ccc(S(=O)(=O)NN=Cc2ccccc2)cc1
    -5	.	.	8	4	4.1	.
CC1(C)CN2C(=S)N(c3ccccc3)C(c3ccccc3)N2C1 (centres undefined)
    13	-33	2447	9	12	1.8	2
CCc1cc(=O)oc2cc(OS(C)(=O)=O)ccc12
    .	-14	3050	.	0	-1.1	6
COc1ccc(-c2nc(CN3CCN(C(=O)c4ccco4)CC3)c(C)o2)c(OC)c1C
    6	2	4816	7	-3	1.9	-7
CCOC(=O)c1ccc(-n2c(C)nc3ccc(Br)cc3c2=O)cc1
    7	34	6217	14	5	5.6	-4
COc1ccc2cc(C(=O)Nc3ccc(F)cc3)sc(=O)c2c1OC
    .	-42	?	.	.	.	-4
CCN(CC)C(=O)Cn1cc(C(=O)C(=O)Nc2ccc3c(c2)OCCO3)c2ccccc21
    10	-75	5852	3	2	0.4	8
Cc1cccc(N2CCN(S(=O)(=O)c3ccc4c(c3)CCC(=O)N4)CC2C)c1 (centres undefined)
    4	-38	10535	10	5	2.2	-3

Four structures already listed, ordered by formula weight, low to high:
Every second line gives: Mtb hypoxia inh	PrP 5UTR inh	Autofluor counter	Mtb hypoxia inh growth	Sa ugtP lethal	RN4220 kill	BJeLR lethal
Cc1nc(SCc2ccccc2F)c2oc3ccccc3c2n1
    40*	-15	4049	15*	9	8.0	5
Cc1cccc(N2CCN(S(=O)(=O)c3ccc4c(c3)CCC(=O)N4)CC2C)c1 (centres undefined)
    4	-38	10535	10	5	2.2	-3
CCCS(=O)(=O)c1nc(S(=O)(=O)c2ccc(C)cc2)c(NCc2ccccn2)s1
    -14	-2	4193	-3	0	-4.0	-18
CCC1=C(c2ccc(C)cc2)S(=O)(=O)N=C1N1CCC(C(=O)NCCCN2CCCCC2)CC1
    6	-12	6515	4	7	4.6	-1

Other results follow:
Every second line gives: Mtb hypoxia inh	PrP 5UTR inh	Autofluor counter	Mtb hypoxia inh growth	Sa ugtP lethal	RN4220 kill	BJeLR lethal
COCCCNc1nc2nonc2nc1N1CCN2CCCC2C1 (centres undefined)
    -2	-5	6401	-4	0	4.2	-3
CCN(Cc1nc(-c2ccc(OC)c(OC)c2)no1)C(=O)c1ccc2c(c1)OCO2
    9	-17	4165	3	3	3.7	2
CCc1nc(N)c(C#N)c(-c2ccco2)c1C
    1	-24	2365	4	5	11	-6
Cc1ccc(S(=O)(=O)N2CCN(c3ccccc3)CC2)c(C)c1
    7	-2	3501	16	22	2.9	-1
COc1ccc(CCn2c(C)nc3c(c(=O)c4ccccc4n3C)c2=O)cc1
    7	5	2191	7	9	6.1	8
Cn1c(C(=O)NCCN2CCOCC2)cc2c(=O)n(C)c3ccccc3c21
    .	3	4276	.	-6	-0.9	-8
O=C(Cc1ccc(F)cc1)NN=Cc1ccc(-c2ccc(Cl)c(C(=O)O)c2)o1
    5	.	.	2	-4	3.7	.
COc1cccc(C(=O)C2CCCN(C(=O)CCC3=NNC(=O)CC3)C2)c1 (centres undefined)
    6	-11	2034	3	5	6.0	-5
O=c1cc(N=Nc2ccc(Cl)cc2)[nH]c(=O)[nH]1
    17	-28	3771	2	100*	100*	13
COC(=O)C1=C(N)Oc2c(oc(CO)cc2=O)C1c1c(F)cccc1Cl (centres undefined)
    16	-13	3610	6	-4	1.1	-1
CN(Cc1ccccc1)C(=O)COc1cc(=O)n(C)c2ccccc12
    4	-21	7003	9	-12	-4.3	-17
C/C(=N/NC(=O)CNC(=O)Cc1ccccc1)c1ccc(Cl)cc1
    .	-8	6120	.	.	.	4
O=C(CN(Cc1ccccc1)S(=O)(=O)c1ccc(F)cc1)NCCC1=CCCCC1
    7	-12	5977	11	-17	12	11
Cc1ccc(S(=O)(=O)N2CCC(C(=O)N/N=C/c3cccnc3)CC2)cc1
    .	-39	10486	.	.	.	14
COCCCN1C(=O)c2ccc(C(=O)N3CCN(c4ccc(OC)cc4)CC3)cc2C1=O
    1	-17	5037	3	-1	1.7	2
C=CCOc1c(C=NNC(N)=O)cccc1OC
    2	.	.	-4	4	1.5	.
COc1cccc(-n2c(=O)c3c(C)c(C(=O)N(C)C)sc3n(CC(=O)NCC3CCCO3)c2=O)c1 (centres undefined)
    -3	-22	4792	-6	3	6.1	-7
CCCCCCn1cnc2c(oc3nc4c(cc32)CCCC4)c1=O
    2	-45	2156	-2	7	2.2	-1
CCCCOC(=O)C1[C@H]2C(=O)N(c3ccccc3CC)C[C@]23C=C[C@H]1O3 (some centres undefined)
    .	-20	2935	.	.	.	2
O=C(NC(NCCCN1CCOCC1)(C(F)(F)F)C(F)(F)F)C1CCCCC1
    6	-26	3235	-5	4	4.6	0
Nc1ccc(-c2nc3ccc(N)cc3o2)cc1
    .	-13	5598	.	2	-5.3	3
CCC(C)(C)NC(=O)C(C(C)C)N(CC1CCCO1)C(=O)CNS(=O)(=O)c1ccccc1 (centres undefined)
    17	-29	3584	13	3	6.0	-4
COc1ccc(COc2ccccc2C(=O)Nc2ccccn2)cc1[N+](=O)[O-]
    2	-11	2062	5	-2	7.0	11
Cc1ccc(-c2cc(C(=O)N3CC4(C)CC3CC(C)(C)C4)no2)cc1 (centres undefined)
    -9	1	5992	9	-1	-1.3	12
COc1ccccc1NC(=S)NNC(=O)c1ccccc1
    14	-55	3097	12	8	3.0	2
O=C(O)CN1C(=O)/C(=C\c2ccccc2OCc2ccc(F)cc2)SC1=S
    -11	-10	3262	-4	-18	8.7	7
CC(C)CCNC(=O)CCCCn1c(=O)[nH]c2ccsc2c1=O
    5	-8	.	-6	13	2.4	4
COc1cc(C(=O)NCCN2CCCC2)cc(OC)c1OC
    .	-6	2524	.	-6	0.5	-1
CC1(CC(=O)N/N=C/c2cc3c(cc2Br)OCO3)OCCO1
    .	-14	2624	.	.	.	3
CN1C(=O)NC(=O)/C(=C/c2ccc([N+](=O)[O-])o2)C1=O
    6	.	.	4	19	-1.7	-2

Further entries follow:
Every second line gives: Mtb hypoxia inh	PrP 5UTR inh	Autofluor counter	Mtb hypoxia inh growth	Sa ugtP lethal	RN4220 kill	BJeLR lethal
O=C1CC(Sc2ncccn2)C(=O)N1c1ccccc1 (centres undefined)
    .	-7	3803	.	4	4.7	-2
Cc1ccc(NC(=O)CSCC(=O)Nc2cccc(S(=O)(=O)N3CCCCCC3)c2)cc1
    -6	-3	8354	-19	-6	5.3	.
Cc1ccc(C(CNS(=O)(=O)c2ccc(F)cc2C)N2CCN(C)CC2)cc1 (centres undefined)
    2	-11	?	5	3	1.3	0
O=C(O)CC(CC(=O)O)c1ccsc1
    11	-22	3664	-3	-1	8.2	.
COc1cc(C(=O)Nc2ccc3c(c2)C(=O)N(CCC(=O)O)C3=O)cc(OC)c1OC
    .	-13	4086	.	-3	-0.2	-2
COc1ccc(CCNCc2ccc(Br)cc2)cc1OC
    -8	-10	3763	9	-2	-1.0	0
Cc1ccccc1C(=O)c1c[nH]c(C(=O)NCCc2ccccn2)c1
    4	-11	3547	6	3	-0.4	-8
O=C1OC(CN2CCOCC2)CN1N=Cc1ccc([N+](=O)[O-])o1 (centres undefined)
    -7	-31	6035	5	100*	100*	.
CCOC(=O)C1(Cc2ccccc2)CCN(Cc2cnn(C(C)C)c2)CC1
    4	-8	4147	-18	1	1.5	10
Cc1ccc(NC(=O)CSc2nnnn2-c2cccnc2)c(C)c1
    8	-14	3568	9	1	5.2	-11
Nc1ccccc1S(=O)(=O)C(F)F
    -3	-14	6045	3	6	2.9	-7
Cc1cc(C)n2ncc(C(=O)NCc3cccnc3)c2n1
    .	3	4361	.	5	2.3	4
O=C(NC1CCCCC1)c1ccc(CS(=O)Cc2ccccc2Cl)o1 (centres undefined)
    7	-14	5518	11	-2	1.6	2
COc1ccc(C(=O)C2CCCN(C(=O)C3=CCCC3)C2)c(C)c1 (centres undefined)
    7	-10	4564	10	5	4.0	6
O=C(Nc1ccccc1O)c1ccc2c(c1)C(=O)N(Cc1ccco1)C2=O
    4	-14	5287	9	-2	4.5	.
C1CCN=C(NC23CC4CC(CC(C4)C2)C3)CC1
    9	.	.	5	11	-0.2	5
O=C(N/N=C\c1c(F)c(F)c(F)c(F)c1F)c1ccc(-c2ccccc2)cc1
    .	-6	4155	.	.	.	-3
CC(=O)c1ccc(NC(=S)N(C)C2CCN(C)CC2)cc1
    7	-11	6490	2	7	1.7	8
COC(=O)c1ccc(N2C(=O)CC(N3CCOCC3)C2=O)cc1 (centres undefined)
    3	6	3327	-6	-2	-8.9	-4
CCN1C(=O)C2C(c3ccc(-c4ccc(Cl)c(Cl)c4)c(OC)c3)N3CCC[C@@]3(C(=O)OC)C2C1=O (some centres undefined)
    12	.	.	8	13	-0.9	.
Cc1ccccc1NC(=O)Cn1cccc1
    8	.	10489	11	1	2.6	2
Cc1ccnc(NC(=O)c2ccc(Cl)cc2Cl)n1
    19	.	.	-5	2	0.7	-1
Cc1ccc(/C=N/NC(=O)c2c[nH]c3ccccc23)s1
    .	-44	2752	.	.	.	-8
Cc1ccc(CNCC(=O)Nc2ccc(C)cc2Br)cc1
    13	-6	4524	6	4	1.9	-1
O=C(O)c1cc(NCc2ccccc2)ccc1N1CCOCC1
    9	-40	2986	7	-8	-9.8	-2

From PubChem BioAssay
